AmpC inh no det: inhibitors of E. coli AmpC beta-lactamase without detergent; AmpC nitrocefin hydrolysis, absorbance 480 nm, no detergent; potencies from a single point are estimates; Potency, µM (titrated, usually from 28.7 µM), for inactives: top-dose activity change, negative = inhibition; P00811; 1.8% of 71,000 active; active = falling curve, for most hits resting on a single point; inconclusive = weak or doubtful change; inactive = flat or rising curve; note: % of control where 0% means no effect; about half of the hits show no inhibition at the top dose; a quarter of the inactives give rising signals
Target sequence (P00811 whole entry, looked up): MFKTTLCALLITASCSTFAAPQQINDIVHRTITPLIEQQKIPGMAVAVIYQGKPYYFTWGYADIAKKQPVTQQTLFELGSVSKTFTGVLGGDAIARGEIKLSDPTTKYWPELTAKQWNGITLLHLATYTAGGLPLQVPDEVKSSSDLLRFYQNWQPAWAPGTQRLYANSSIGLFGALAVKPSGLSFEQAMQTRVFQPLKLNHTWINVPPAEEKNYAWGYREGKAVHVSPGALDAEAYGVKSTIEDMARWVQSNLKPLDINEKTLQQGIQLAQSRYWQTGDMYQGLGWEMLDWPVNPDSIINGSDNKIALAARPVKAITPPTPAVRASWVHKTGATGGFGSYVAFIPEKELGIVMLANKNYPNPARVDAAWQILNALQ
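AmpC in 20 mM phosphate buffer pH 7.0 was preincubated 15 min at room temperature with compounds. Nitrocefin (800 uM stock) was then added and hydrolysis followed at 480 nm every 20 s for 4 min.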
The depositor's hits bear a star; ? = inconclusive; [ ] = another dose, or the depositor's remark. Potency is the fitted concentration of half-maximal effect. These rows are one share of the data, so the mix of outcomes need not match the whole.

| mol | AmpC inh no det |
| --- | --- |
| COCCNC(=O)Cn1nc(C(F)(F)F)cc1C | 9.3% |
| CCn1c(SCC(=O)c2ccc(CNC(C)=O)o2)nnc1-c1cccs1 | 19.7% |
| Cc1nnc(SCC(=O)Nc2ccc(Cl)cn2)n1Cc1ccccc1 | 11.9% |
| Cc1cccc(N(CC(=O)N2CCCC2)S(=O)(=O)c2ccccc2)c1C | 63.8% |
| Nc1ccc2oc(=O)c3ccccc3c2c1 | -7.7% |
| O=C(CSc1nnnn1C1CCCC1)NCc1ccc2c(c1)OCO2 | -3.1% |
| CC(C)c1nc(C#N)c(NCCCn2ccnc2)o1 | 3.1% |
| CCSc1nc2cc(C(=O)OC)ccc2c(=O)n1CC | 31.4% |
| COc1ccccc1Oc1ccc2c(c1)C(=O)N(c1ccc(O)cc1)C2=O | 12.6µM*[single pt active] |
| CCC(C)Oc1cccc(OCCCCN2C(=O)NC(C)(C)C2=O)c1 (centres undefined) | 68.4% |
| COc1cc(NC(=O)c2cc(CC(C)C)on2)c(OC)cc1Cl | 3.98µM*[single pt active] |
| CC(=NCC1CCCO1)c1c(O)n(-c2ccccc2)c(=O)[nH]c1=O (centres undefined) | -2.4% |
| CCOC(=O)CSC1=C(C#N)C(c2ccc(C)cc2)C2=C(CCCC2=O)N1 (centres undefined) | 21.9% |
| N#C/C(=C\c1ccc[nH]1)Sc1nc2ccccc2s1 | -21.0% |
| c1coc(-c2nn3c(-c4ccco4)nnc3s2)c1 | -5.5% |
| Cc1ccc(C)c(-c2nc3ccc(N)cc3[nH]2)c1 | -12.8% |
| O=C(NCCC(=O)N1CCN(c2ncccn2)CC1)c1ccccc1 | 0.4% |
| Cc1cc(C(=O)COC(=O)Cn2c(C(F)(F)F)nc3ccccc32)c(C)n1Cc1ccco1 | 38.1% |
| CCOC(=O)c1[nH]c2ccc(F)cc2c1NC(=O)c1cc(OC)c(OC)c(OC)c1 | 80.5% |
| Cc1oc(/N=C/c2cccc3ccccc23)c(C#N)c1C | -13.5% |
| CC(C)(C)NC(=O)CSc1nccn1Cc1ccccc1 | 15.4% |
| CN(C)S(=O)(=O)c1ccc(NC(=O)c2ccccn2)cc1 | 6.6% |
| CCOCCCNC(=O)C1CCC(=O)N1CCc1ccccc1 (centres undefined) | -1.3% |
| COc1ccccc1N1CCN(C2=CC(=O)CCC2)CC1 | -2.3% |
| CCOc1ccccc1NS(=O)(=O)c1ccc(OC)c(OC)c1 | 6.9% |
| O=C1CC(=O)N(c2cccc(Cl)c2)C(=O)N1 | -16.8% |
| CC(=O)O/C(=C1/C[C@H]2[C@@H]3CC=C4C[C@@H](OC(C)=O)CC[C@]4(C)[C@@H]3CC[C@]2(C)C1=O)C(F)(F)F | -4.7%[5.75 µM] |
| COc1ccc([C@@H](Nc2ccccn2)c2cc(C(C)(C)C)cc(C(C)(C)C)c2O)cc1 | -15.0%[5.75 µM] |
| C/C(=C\c1ccc(Cl)cc1)C(C)(C)C(=O)O | 8.5%[5.75 µM] |
| COc1cccc2cc(C(=O)C3=C(O)C(=O)N(Cc4ccco4)C3c3cccnc3)oc12 (centres undefined) | -10.8% |
| CCCCNC(=O)c1cc2c(=O)n3cccc(C)c3nc2n(Cc2ccccc2)c1=N | 62.5% |
| COC(=O)c1cc2sccc2n1CC(=O)Nc1cc(OC)cc(OC)c1 | 14.7% |
| CCOC(=O)NCCc1c(C)nc2c(c(C)nn2C(C)(C)C)c1C | 69.5% |
| Cc1cc(NC(=O)Cn2cnc3c2c(=O)n(C)c(=O)n3C)n(-c2ccccc2)n1 | -6.3% |
| O=C(NCCCN1CCN(c2ccccc2F)CC1)C1CCC(=O)N1C1CCCCC1 (centres undefined) | 26.0% |
| CCNc1nc(OC)nc(Oc2ccc(=O)n(-c3ccccc3)n2)n1 | 0.5% |
| CC1(C)CC(=O)C2=C(C1)N(Cc1ccco1)C(=O)C2(NC(=O)C1CCCCC1)C(F)(F)F (centres undefined) | 35.4% |
| Cc1ccc2[nH]c3c(=O)n(CCN4CCNCC4)cnc3c2c1 | 9.1% |
| CCCCn1c(=NC(=O)c2ccc3c(c2)OCO3)c(C#N)cc2c(=O)n3cccc(C)c3nc21 | 40.1% |
| O[C@@H](c1cc(-c2ccccc2)nc2c1ccc1ccccc12)[C@@H]1CCCCN1 | 11.5%[5.75 µM] |

Entries shown so far that have an aryl thioether with sulfur outside any ring, in the order listed:
| mol | AmpC inh no det |
| --- | --- |
| CCn1c(SCC(=O)c2ccc(CNC(C)=O)o2)nnc1-c1cccs1 | 19.7% |
| Cc1nnc(SCC(=O)Nc2ccc(Cl)cn2)n1Cc1ccccc1 | 11.9% |
| O=C(CSc1nnnn1C1CCCC1)NCc1ccc2c(c1)OCO2 | -3.1% |
| CCSc1nc2cc(C(=O)OC)ccc2c(=O)n1CC | 31.4% |
| N#C/C(=C\c1ccc[nH]1)Sc1nc2ccccc2s1 | -21.0% |
| CC(C)(C)NC(=O)CSc1nccn1Cc1ccccc1 | 15.4% |

Later entries:
| mol | AmpC inh no det |
| --- | --- |
| c1ccc(CNc2c3c(nc4ncnn24)CCCC3)nc1 | -4.4% |
| COc1ccc(N(CC(=O)Nc2cc(C)on2)S(=O)(=O)c2cc(C)ccc2C)cc1 | -22.2% |
| O=C1NC(=O)C(CC(=O)N(c2ccccc2)C2(C(=O)NC3CCCC3)CCCCC2)N1 (centres undefined) | 35.6% |
| CC1(C)CC(=O)C2=C(C1)OC(N)=C(C#N)C2C#Cc1ccccc1 (centres undefined) | -7.5% |
| Cc1cc(C(=O)N[C@H](c2ccccc2)[C@@]2(C)C[C@@H]2[C@@H](C)C(=O)Nc2ccc3ccccc3c2)n(C)n1 | 69.0% |
| CCCNC(=O)N1N=C(c2ccc(N)cc2)c2cc3c(cc2[C@H]1C)OCO3 | 65.4% |
| CC(C)(C)C(=O)Oc1cc(N)n(S(=O)(=O)c2ccccc2)n1 | -10.2% |
| COc1ccc(CCNC(=O)c2nnn(CC(=O)Nc3ccccc3C)c2N)cc1OC | 14.5% |
| CC1(c2ccc(Cl)cc2)NC(=O)N(CC(=O)NC(=O)NCc2ccco2)C1=O (centres undefined) | 40.9% |
| CCOC(=O)N1CCC(NC(=O)CSc2cc(=O)n(C)c3ccccc23)CC1 | 63.3% |

Additional records follow:
| compound | AmpC inh no det |
| --- | --- |
| O=C(Nc1ccc2c(c1)Cc1ccccc1-2)[C@@H]1[C@H](C(=O)O)[C@]2(Cl)C(Cl)=C(Cl)[C@@]1(Cl)C2(Cl)Cl | -22.5%[5.75 µM] |
| Cc1ccc(N(C(C)C(=O)Nc2ccccc2C(=O)N2CCOCC2)S(C)(=O)=O)cc1C (centres undefined) | 33.1% |
| O=S(=O)(NCCSc1nc2ccccc2o1)c1ccccc1 | -19.0% |
| CCOc1ccc(N(CC(N)=O)S(=O)(=O)c2ccc(F)cc2)cc1 | 10.5% |
| CCC(=O)N=C1SC2CS(=O)(=O)CC2N1c1cccc(OC)c1 (centres undefined) | 2.4% |
| COc1ccc2cc(CN(Cc3cccnc3)Cc3nnnn3Cc3ccccc3)c(=O)[nH]c2c1 | 72.1% |
| CC(=O)Nc1cccc(Oc2ccc3c(c2)C(=O)N(CCC(=O)O)C3=O)c1 | -3.5% |
| Cc1cccc(NC(=O)N2CCC(c3nc4ccccc4o3)CC2)c1 | 24.7% |
| O=C(CCN1CCCCC1)c1ccc2c(c1)OCCO2 | -14.6% |
| COC(=O)c1ccc(CSc2ccc3nnc(-c4ccccn4)n3n2)o1 | 9.9% |
| Cn1c(=O)c2c(SCC(=O)NCC3CCCO3)nc(-c3cccs3)nc2n(C)c1=O (centres undefined) | -0.3% |
| COCCNC(=O)CS(=O)Cc1nc(-c2ccccc2C)oc1C (centres undefined) | 18.4% |
| O=C(OCCNC(=O)c1cc2ccccc2oc1=O)c1cccnc1 | 19.6% |
| O=C(NC1CC2CCC(C1)N2Cc1nnnn1Cc1ccco1)NC12CC3CC(CC(C3)C1)C2 (centres undefined) | 80.2% |
| Fc1ccc2[nH]c3c(N4CCSCC4)ncnc3c2c1 | ? |
| O=S(=O)(c1ccccc1)n1nc(-c2ccccc2)nc1NCc1ccco1 | -7.4% |
| COc1ccc2nc(NC(=O)CSC3=NCCS3)sc2c1 | -2.1% |
| Cc1ccc(NC(=O)CSc2nnc(-c3ccc(S(=O)(=O)N4CCOCC4)cc3)n2C)cc1 | 107.3% |
| O=c1[nH]c(CN2CCN(C/C=C/c3ccccc3)CC2)nc2cc(Cl)ccc12 | 90.9% |
| C[C@@H]1NCC[C@H](CC(=O)O)[C@H]1CC(=O)O | -14.1%[5.75 µM] |
| NC(=NCCC[C@H](N)C(=O)O)NO | 8.9% |
| CCc1ccccc1N1CC23C=CC(O2)C(C(=O)OC)C3C1=O (centres undefined) | 10.7% |
| O=C(NCc1cccs1)c1cc2c(s1)CS(=O)(=O)C2 | -9.2% |
| CCC(=O)Nc1cccc(NC(=O)c2ccc3c(c2)OCCO3)c1 | -15.0% |
| CC(=O)Nc1cccc(-c2nnc(SCC(=O)N3CCCCC3)n2C)c1 | 7.9% |
| COc1ccc(C(=O)Nc2ccc(Cl)cc2C(=O)NCCO)cc1 | -9.3% |
| Cc1ccc(S(=O)(=O)N2CCC(C(=O)N[C@@H](C)C(=O)NCC3CCCO3)CC2)cc1 (some centres undefined) | 8.3% |
| COc1ccc(-c2noc(CCN3C(=O)c4ccccc4C3=O)n2)cc1OC | 19.1% |
| Cc1sc2nc(SCC(=O)N(C)C)[nH]c(=O)c2c1C | 7.0% |
| Cc1ccc2cc3cc(C(=O)NCc4ccc5c(c4)OCO5)oc3nc2c1 | 7.5% |
| COc1cc(NS(=O)(=O)c2ccccc2)ccc1-n1nc(C)cc1C | 9.7% |
| COc1cccc(Cn2c(-c3cccs3)noc2=O)c1 | -14.0% |
| Cc1ccc2cc(C(c3nnnn3Cc3ccccc3)N3CCN(c4ccccc4)CC3)c(=O)[nH]c2c1 (centres undefined) | 7.4% |
| CC(=Nc1ccc2c(c1)CCC2)c1c(O)n(C2CCCCC2)c(=O)[nH]c1=O | -21.0% |
| CC1=CCC2C(=O)N(c3ccc(C)c(Br)c3)C(=O)C2C1 (centres undefined) | 15.3% |
| O=C(c1ccc(Br)s1)N1CCN(c2ncccn2)CC1 | 8.3% |
| Cc1cc(-c2nnc3n2N=C(C(C)(C)C)CS3)n[nH]1 | -15.5% |
| O=C(CCN1C(=O)CSC1=O)Nc1ccccc1 | -5.8% |
| Fc1cccc(CSc2ncnc3c2oc2ccccc23)c1 | 5.7% |
| COc1ccc(F)cc1S(=O)(=O)Nc1ccc2c(c1)OCO2 | -10.2% |
| COc1cccc(NC(=O)N2CCN(c3cccc(C)c3)C(C)C2)c1 (centres undefined) | 19.2% |
| CC(=O)Nc1nc2ccccc2n1CCOc1ccccc1Cl | 66.2% |
| COc1ccccc1CNC(=O)CCS(=O)(=O)c1ccc2c(c1)CCCN2C(C)=O | 29.1% |
| CCNCC | 9.7% |
| CC(NC(=O)NC12CC3CC(CC(C3)C1)C2)C1CCCO1 (centres undefined) | 11.2% |
| CC(c1ccco1)N(Cc1ccco1)C(=O)Nc1ccccc1 (centres undefined) | -14.3% |
| Cc1ccc2cccc(S(=O)(=O)N3CCN(c4ccccc4F)CC3)c2n1 | 14.6% |
| C=Cc1cccc(NC(=O)COc2ccccc2)c1 | -8.9% |
| Cc1nc2ccc(S(=O)(=O)NC(CC(C)C)C(=O)O)cc2s1 (centres undefined) | 1.0% |
| COc1nc(OCCNC(=O)Nc2ccccc2)nc(N(C)C)n1 | -11.3% |

Later entries:
| compound | AmpC inh no det |
| --- | --- |
| Cc1c(N)cccc1[N+](=O)[O-] | 2.2% |
| CCN(CCNC(=O)c1cc(C)nn1-c1ccccc1)c1ccccc1 | 46.4% |
| Cc1noc(C)c1S(=O)(=O)N1CCC2(CC1)OCCO2 | 9.9% |
| Cc1ccc(S(=O)(=O)Cc2ccc(C(=O)N3CCC4(CC3)OCCO4)o2)cc1 | 4.7% |
| CCOC(=O)C1C(=O)C=C(c2ccc(OC)cc2)CC1c1ccco1 (centres undefined) | 18.7% |
| Cc1nn(-c2ccccc2)c2sc(C(=O)OCn3nnc4ccccc4c3=O)cc12 | 10.0% |
| Brc1cccc(-c2nnc(SCc3nc4ccccc4[nH]3)o2)c1 | 2.9% |
| CCn1c(SCc2nc(-c3cccs3)no2)nnc1-c1c[nH]c2ccccc12 | -7.3% |
| Nc1ccc(-c2nc3ccccc3[nH]2)cc1 | -16.8% |
| CCn1c(=O)cc(SCC(=O)Nc2ccc3c(c2)OCCO3)c2ccccc21 | 72.5% |
| CCCn1c2ccccc2c2nc3ccccc3nc21 | 85.8% |
| COc1ccc(NC(=O)[C@H](CCS(C)(=O)=O)N2Cc3ccccc3C2=O)c(OC)c1 | 3.98µM*[single pt active] |
| CCCCC(c1nnnn1CC1CCCO1)N1CCN(c2cccc(C)c2C)CC1 (centres undefined) | 86.0% |
| Cc1cc(C)c2cc(CN(Cc3ccc4c(c3)OCO4)Cc3nnnn3Cc3ccco3)c(=O)[nH]c2c1 | -14.1% |
| CC1Cc2cc(/C(O)=C3\C(=O)C(=O)N(CCN4CCOCC4)C3c3ccccc3F)ccc2O1 (centres undefined) | 8.6% |
| COC(=O)c1c(C(=O)OC)n(CCCN)c2ccc(C)cc12 | 20.7% |
| Cc1ccc2nsnc2c1S(=O)(=O)N1CCN(Cc2ccc3c(c2)OCO3)CC1 | 49.2% |
| COC(=O)C1(C)Nc2ccccc2C(=O)N1c1ccccc1OC (centres undefined) | 3.1% |
| COc1ccc(COC(=O)c2nc3nc(C)cc(C)n3n2)cc1F | 7.4% |
| CCN(C(=O)COc1cc(=O)n(CC)c2ccccc12)c1cc(Cl)ccc1OC | 157.0% |
| COC(=O)CSc1nnc(-c2ccccn2)n1Cc1ccco1 | 5.1% |
| Cc1ccc(-n2cnnn2)c(S(=O)(=O)N2CCOCC2)c1 | 5.9% |
| O=C(CN(c1ccc2c(c1)OCCO2)S(=O)(=O)c1ccccc1)NCc1ccco1 | 6.2% |
| Cc1cc(NC(=O)C2CCC2)n(-c2ccccn2)n1 | 31.0% |
